# MLL AF4-AF9 inh = inhibitors of AF4 peptide binding to AF9, primary screen, biochemical, AlphaScreen, biotin-AF4 peptide, FLAG-AF9, single point. inhibition, % at 10 µM. AID 651704, 2012. hit rate 0.47% among 350,000;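 active = every replicate reaching a set inhibition limit, whatever the replicate mean, cut at about 25% in these data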;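 also: 0% = plate neutral control median and 100% = total signal loss; the record names both 10 and 1 µM as test concentration; the first replicate is given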
# Target sequence (P42568 whole entry, looked up): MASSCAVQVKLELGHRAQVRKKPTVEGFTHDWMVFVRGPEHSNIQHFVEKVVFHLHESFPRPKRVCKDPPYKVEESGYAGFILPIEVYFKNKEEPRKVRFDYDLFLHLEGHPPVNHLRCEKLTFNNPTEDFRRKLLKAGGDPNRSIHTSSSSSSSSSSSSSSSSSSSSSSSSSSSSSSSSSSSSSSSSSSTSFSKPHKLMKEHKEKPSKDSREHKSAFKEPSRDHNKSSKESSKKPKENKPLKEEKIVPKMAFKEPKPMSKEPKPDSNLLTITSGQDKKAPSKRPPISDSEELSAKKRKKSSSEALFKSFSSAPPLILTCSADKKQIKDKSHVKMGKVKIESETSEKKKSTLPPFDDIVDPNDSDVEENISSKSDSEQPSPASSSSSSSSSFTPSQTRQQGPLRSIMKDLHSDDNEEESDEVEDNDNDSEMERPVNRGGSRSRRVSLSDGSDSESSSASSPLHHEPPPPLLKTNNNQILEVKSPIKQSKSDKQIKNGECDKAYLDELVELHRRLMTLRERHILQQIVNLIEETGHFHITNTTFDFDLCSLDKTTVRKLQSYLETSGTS
# FGF22 binding = binders of human FGF22 protein, primary screen, FGF22 synaptogenesis inhibitor project, biophysical, thermal shift, single point; Fibroblast growth factor 22 (Homo sapiens), Q9HCT0; recombinant FGF22 thermal shift, SYPRO orange fluorescence; percent of sucrose octasulfate shift, DMSO zero; calls only at 9.99 µM; hit rate 1.5% among 340,000;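 active = melting point raised past a set limit in the mean and every replicate; three in four hits are not shown here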
# Target sequence (Q9HCT0 whole entry, looked up): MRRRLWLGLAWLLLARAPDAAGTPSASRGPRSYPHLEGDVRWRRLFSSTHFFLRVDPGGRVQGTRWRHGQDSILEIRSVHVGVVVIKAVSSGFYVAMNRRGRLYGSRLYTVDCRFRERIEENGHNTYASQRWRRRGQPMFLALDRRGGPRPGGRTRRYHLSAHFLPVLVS
# Starred values were filed as active, the others as inactive; i = inactive; & = joins results of further samples. A portion of the library. The share of hits here may be higher or lower than overall.
SMILES,MLL AF4-AF9 inh,FGF22 binding
O=C(Nc1ccc(Cl)c(Cl)c1)N[C@@H]1CC[C@H](CCn2cc(C3CCCCC3)nn2)O[C@H]1CO,3.0,i
CC(C)c1cn(CC[C@@H]2CC[C@@H](NS(=O)(=O)Cc3ccccc3)[C@H](CO)O2)nn1,-1.6,i
C[C@H](CO)N1C[C@H](C)[C@H](CN(C)S(=O)(=O)c2cn(C)cn2)OCCCC[C@H](C)Oc2ccc(NC(=O)c3ccncc3)cc2C1=O,-1.1,i
O=C(C[C@@H]1CC[C@@H]2[C@H](COC[C@@H](O)CN2C(=O)Nc2ccc(F)cc2)O1)NCCc1ccncc1,0.1,i
C[C@@H]1CN([C@@H](C)CO)C(=O)c2cccc(NC(=O)c3cnccn3)c2O[C@@H]1CN(C)Cc1ccc(C(=O)Nc2ccccc2N)cc1,2.8,i
O=C(Nc1ccc(F)cc1)N[C@@H]1C=C[C@H](CC(=O)N2CCOCC2)O[C@@H]1CO,-17.0,i
C/C=C/c1ccc([C@@H]2[C@H](CO)N[C@H]2CN(CC)C(=O)CN2CCOCC2)cc1,1.5,i
C/C=C/c1ccc2c(c1)O[C@H](CN(C)S(C)(=O)=O)[C@H](C)CN([C@H](C)CO)S2(=O)=O,2.2,i
CCNC(=O)C[C@H]1CC[C@@H]2[C@H](COC[C@H](O)CN2C(=O)C2CCCC2)O1,0.7,i
COc1ccc(CN2C[C@H](O)COC[C@H]3O[C@@H](CC(=O)NCc4ccccc4Cl)CC[C@@H]32)cc1,2.6,i
O=C(c1cccnc1)N1C[C@@H]2[C@H](c3ccccc31)[C@H](CO)N2Cc1ccc2c(c1)OCO2,-0.3,i
C[C@@H]1CCCCO[C@H](CN(C)C(=O)Nc2ccc(C(F)(F)F)cc2)[C@H](C)CN([C@H](C)CO)C(=O)c2cc(NS(C)(=O)=O)ccc2O1,-0.2,i
COc1cccc(-c2ccc3c(c2)[C@@H]2[C@@H](CCN2C(=O)CN2CCOCC2)[C@@H](CO)N3)c1,-3.3,i
C[C@@H]1CN([C@H](C)CO)C(=O)c2cccc(NC(=O)Nc3ccc(F)cc3)c2O[C@H]1CN(C)C(=O)Nc1ccc(F)cc1,-0.9,i
N#C[C@@H]1[C@H](c2ccc(C#CC3CCCC3)cc2)[C@@H](CO)N1C(=O)Nc1ccc(F)cc1,-1.6,i
Cc1noc(C)c1S(=O)(=O)Nc1ccc2c(c1)C(=O)N([C@@H](C)CO)C[C@@H](C)[C@H](CN(C)S(=O)(=O)c1cccs1)O2,-1.4,i
COc1ccccc1NC(=O)N1CC(=O)N2[C@H](CO)[C@H](c3ccc(C#CC(C)C)cc3)[C@H]2C1,-0.4,i
O=C(O)C[C@@H]1C[C@H]2c3cc(NC(=O)NC4CCCCC4)ccc3O[C@H]2[C@H](CO)O1,-0.6,i
CNC[C@@H]1Oc2c(NC(=O)Nc3ccc(OC)cc3)cccc2C(=O)N([C@H](C)CO)C[C@H]1C,-0.8,i
C[C@@H]1CN([C@H](C)CO)C(=O)Cc2cc(NS(=O)(=O)c3ccccc3)ccc2O[C@H]1CN(C)CC1CCCCC1,2.2,i
CC(=O)N(C)C[C@@H]1Oc2ncc(-c3ccc(F)cc3)cc2C(=O)N([C@H](C)CO)C[C@@H]1C,-2.3,i
C[C@H](CO)N1C[C@H](C)[C@H](CN(C)C(=O)Nc2ccnc(N3CCOCC3)c2)OCc2ccccc2-c2ccccc2C1=O,0.7,i
O=C(NCc1ccccc1)[C@H]1N[C@H]2c3cccc(=O)n3C[C@H]2[C@@H]1CO,-0.1,i
C[C@H](CO)N1C[C@H](C)[C@H](CN(C)Cc2ccc(Cl)c(Cl)c2)Oc2c(NC(=O)Nc3ccc4c(c3)OCO4)cccc2C1=O,10.3,i
CNC[C@@H]1Oc2ccc(N(C)C)cc2CC(=O)N([C@@H](C)CO)C[C@@H]1C,-2.9,i

# One compound at a time, from the list above. Order of screens: MLL AF4-AF9 inh, FGF22 binding
# Profile of C/C=C/c1ccc([C@@H]2[C@H](CO)N[C@H]2CN(CC)C(=O)CN2CCOCC2)cc1 : 1.5, i
# Profile of C[C@@H]1CCCCO[C@H](CN(C)C(=O)Nc2ccc(C(F)(F)F)cc2)[C@H](C)CN([C@H](C)CO)C(=O)c2cc(NS(C)(=O)=O)ccc2O1 : -0.2, i
# Profile of Cc1noc(C)c1S(=O)(=O)Nc1ccc2c(c1)C(=O)N([C@@H](C)CO)C[C@@H](C)[C@H](CN(C)S(=O)(=O)c1cccs1)O2 : -1.4, i
# Profile of O=C(Nc1ccc(F)cc1)N[C@@H]1C=C[C@H](CC(=O)N2CCOCC2)O[C@@H]1CO : -17.0, i
# Profile of C[C@H](CO)N1C[C@H](C)[C@H](CN(C)C(=O)Nc2ccnc(N3CCOCC3)c2)OCc2ccccc2-c2ccccc2C1=O : 0.7, i

# Back to the main list, repeating the two entries before the break.
SMILES,MLL AF4-AF9 inh,FGF22 binding
C[C@H](CO)N1C[C@H](C)[C@H](CN(C)Cc2ccc(Cl)c(Cl)c2)Oc2c(NC(=O)Nc3ccc4c(c3)OCO4)cccc2C1=O,10.3,i
CNC[C@@H]1Oc2ccc(N(C)C)cc2CC(=O)N([C@@H](C)CO)C[C@@H]1C,-2.9,i
C[C@@H]1CN([C@@H](C)CO)C(=O)c2cccc(NS(=O)(=O)c3cn(C)cn3)c2O[C@@H]1CN(C)S(=O)(=O)c1ccc(F)cc1,-16.5,i
C[C@H](CO)N1C[C@H](C)[C@H](CN(C)Cc2ccc(Cl)c(Cl)c2)Oc2ccc(NC(=O)CCCN(C)C)cc2C1=O,3.3,i
O=S1(=O)c2ccc(Br)cc2OC2CCCC[C@@H]2N1Cc1ccccc1 (stereo not given in full),-8.1,i
Cc1noc(C)c1S(=O)(=O)Nc1ccc2c(c1)CC(=O)N([C@H](C)CO)C[C@@H](C)[C@@H](CN(C)C(=O)Nc1ccc(F)cc1)O2,-1.2,i
C[C@@H]1CN([C@@H](C)CO)C(=O)c2cc(-c3ccc(C#N)cc3)cnc2O[C@@H]1CN(C)Cc1cccnc1,-4.4,i
C[C@@H]1CN([C@H](C)CO)C(=O)c2cc(NC(=O)C3CC3)ccc2O[C@H]1CN(C)Cc1ccncc1,-3.8,i
CNC[C@H]1OCCCC[C@@H](C)Oc2ccc(NC(=O)NC3CCCCC3)cc2C(=O)N([C@H](C)CO)C[C@@H]1C,-2.9,i
COc1ccc(S(=O)(=O)N(C)C[C@H]2Oc3ccc(NC(=O)Nc4ccc(F)cc4)cc3C(=O)N([C@H](C)CO)C[C@@H]2C)cc1,2.9,i
CCCNC(=O)[C@@H]1[C@@H](CO)[C@@H]2Cn3c(ccc(C4=CCCC4)c3=O)[C@@H]2N1C(=O)c1cnccn1,-2.0,i
CC(=O)N(C)C[C@H]1Oc2cc(-c3cccc(C#N)c3)ccc2S(=O)(=O)N([C@H](C)CO)C[C@H]1C,-1.5,i
C[C@@H]1CN([C@H](C)CO)C(=O)Cc2cc(NC(=O)CCCCCC(=O)Nc3ccccc3N)ccc2O[C@@H]1CN(C)Cc1ccc(Cl)c(Cl)c1,0.5,i
CCC(=O)N1[C@H](CO)[C@@H](c2ccccc2)C12CN(C(=O)NC1CCCC1)C2,-3.9,i
COc1ccc(S(=O)(=O)Nc2ccc3c(c2)CC(=O)N([C@H](C)CO)C[C@H](C)[C@@H](CN(C)C(=O)NC(C)C)O3)cc1,-3.1,i
CO[C@H]1CC[C@@H]2CCOc3ccc(C#N)cc3C(=O)N(C)C[C@@H](C)C(=O)N(C)C[C@H]1O2,2.1,i
CO[C@H](CN(C)S(=O)(=O)c1cccc(Cl)c1)[C@@H](C)CN([C@@H](C)CO)S(=O)(=O)c1ccc(Cl)cc1,-2.0,i
C[C@@H]1CCCCO[C@@H](CN(C)Cc2ccc(C(=O)Nc3ccccc3N)cc2)[C@@H](C)CN([C@H](C)CO)C(=O)c2cc(NS(=O)(=O)c3ccccc3)ccc2O1,-3.1,i
Cc1ccc(-c2ccc3c(c2)O[C@@H](CN(C)C(=O)Nc2ccccc2)[C@H](C)CN([C@H](C)CO)S3(=O)=O)cc1,3.3,i
CO[C@H]1CC[C@@H]2CCOc3ccc(C#N)cc3C(=O)N(C)C[C@H](C)C(=O)N(C)C[C@H]1O2,0.3,i
Cc1cccc(S(=O)(=O)N[C@H]2CC[C@@H](CCn3cc(-c4ccccn4)nn3)O[C@@H]2CO)c1,0.0,i
N#C[C@@H]1[C@H](c2ccccc2-c2ccccc2F)[C@H](CO)N1C(=O)C1CCC1,-0.5,i
C[C@@H]1CN([C@H](C)CO)C(=O)CCCn2cc(nn2)CO[C@@H]1CN(C)C(=O)Nc1ccnc(N2CCOCC2)c1,-1.9,i
C[C@H](CO)N1C[C@H](C)[C@H](CN(C)S(=O)(=O)c2ccccc2F)Oc2ncc(C#Cc3ccccc3F)cc2C1=O,-1.1&0.0,i
CC(C)NC(=O)N[C@@H]1CC[C@H](CC(=O)NC2Cc3ccccc3C2)O[C@H]1CO,-0.9,i
CO[C@@H]1CN(C)C(=O)c2cc(NC(=O)C3CC3)ccc2OC[C@H](C)N(CC2CCCC2)C[C@@H]1C,-1.3,i
Cc1noc(C)c1S(=O)(=O)N(C)C[C@@H]1Oc2ccc(NC(=O)NC(C)C)cc2CC(=O)N([C@H](C)CO)C[C@H]1C,1.6,i
SMILES,MLL AF4-AF9 inh,FGF22 binding
CN1c2ccc(-c3ccc(C#N)cc3)cc2[C@@H]2[C@@H](CCN2S(=O)(=O)c2ccc(F)cc2)[C@@H]1CO,0.0,i
O=C(C[C@H]1C=C[C@H](NC(=O)CC2CC2)[C@@H](CO)O1)NCc1ccc(Cl)cc1,-8.8,i
C[C@@H]1CN([C@H](C)CO)C(=O)c2cccc(N(C)C)c2O[C@@H]1CN(C)Cc1ccc(Cl)c(Cl)c1,4.9,i
CC(C)(C)[C@@H]1C=C(C(=O)NCc2nc3ccccc3[nH]2)O[C@H](OCc2ccc(CO)cc2)C1,-0.6,i
O=C(Nc1ccc(F)cc1)N1CCCCN2[C@@H](CO)[C@H](c3ccc(C#CC4CC4)cc3)[C@@H]2C1,12.5,i
C[C@H]1CN([C@@H](C)CO)C(=O)c2cc(NC(=O)CCC(F)(F)F)ccc2O[C@@H]1CN(C)Cc1ccc(Oc2ccccc2)cc1,5.7,i
C[C@H](CO)N1C[C@H](C)[C@H](CN(C)Cc2ccc(-c3ccccc3)cc2)Oc2ccc(NS(=O)(=O)c3cn(C)cn3)cc2C1=O,-5.6,i
Cc1noc(C)c1NC(=O)N(C)C[C@@H]1Oc2c(NS(=O)(=O)c3ccc(Cl)cc3)cccc2C(=O)N([C@@H](C)CO)C[C@H]1C,-1.9,i
COc1cccc(-c2cnc3c(c2)C(=O)N([C@H](C)CO)C[C@H](C)[C@@H](CN(C)Cc2ccccc2)O3)c1,3.1,i
COc1ccc(CN2[C@H](CO)[C@@H]3c4ccccc4N(C(=O)CC(F)(F)F)C[C@@H]32)cc1,-1.5,i
COc1cccc(CNC(=O)c2cc3c(c(-c4cccc(-c5ccncc5)c4)n2)[C@@H](CCO)N([S@](=O)C(C)(C)C)C3)c1,-1.8,i
C[C@H]1CN([C@@H](C)CO)C(=O)c2c(c3ccccc3n2C)-c2ccccc2CO[C@H]1CN(C)S(=O)(=O)c1ccc(F)cc1,5.9,i
CN(C)C(=O)C[C@@H]1CC[C@H]2[C@H](COc3ccc(NC(=O)C4CCOCC4)cc3C(=O)N2C)O1,-1.3,i
CCC(=O)N(C)C[C@H]1Oc2cc(-c3ccccc3F)ccc2S(=O)(=O)N([C@H](C)CO)C[C@@H]1C,2.9,i
COCCNC(=O)[C@H]1[C@H](CO)[C@H]2Cn3c(ccc(C4=CCCCC4)c3=O)[C@@H]1N2Cc1cocn1,-0.2,i
C[C@@H]1CN([C@H](C)CO)C(=O)Cc2cc(NC(=O)CCCCCC(=O)Nc3ccccc3N)ccc2O[C@H]1CN(C)S(=O)(=O)c1cn(C)cn1,1.4,i
CN(C)C(=O)[C@H]1[C@H](CO)[C@H]2Cn3c(ccc(-c4ccccc4)c3=O)[C@H]2N1CCC(F)(F)F,-11.8,i
CCCNC(=O)C[C@H]1CC[C@@H]2[C@H](COC[C@H](O)CN2C(=O)Nc2c(C)noc2C)O1,-0.2,i
Cc1ccc(S(=O)(=O)Nc2ccc3c(c2)C(=O)N([C@H](C)CO)C[C@H](C)[C@H](CN(C)Cc2ccccc2)O3)cc1,0.8,i
CCCC(=O)Nc1ccc2c(c1)C(=O)N(C)C[C@@H](OC)[C@H](C)CN(Cc1ccccc1OC)[C@H](C)CO2,-2.5,i
CCN1[C@@H]2c3ccc(-c4cccnc4)c(=O)n3C[C@H]1[C@H](CO)[C@H]2C(=O)NC1CCCCC1,0.6,i
COCC(=O)N1CCC2(CC1)CN(C(=O)COC)[C@H](CO)c1c2c2ccc(OC)cc2n1C,-2.3,i
COc1ccc2c3c([nH]c2c1)[C@@H](CO)N(C(=O)C1CCCC1)CC31CN(C(=O)c2ccncc2)C1,1.5,i
CCCC#Cc1cnc2c(c1)C(=O)N([C@@H](C)CO)C[C@H](C)[C@H](CN(C)Cc1ccncc1)O2,-2.4,i
C[C@H](CO)N1C[C@H](C)[C@H](CN(C)S(=O)(=O)c2ccccc2)Oc2ncc(-c3cccc(C(F)(F)F)c3)cc2C1=O,0.5,i
C[C@@H]1CN([C@@H](C)CO)C(=O)c2cc(C#C[C@@H](C)O)cnc2O[C@H]1CN(C)C(=O)CC1CC1,-1.0,i
C[C@@H]1CCCCO[C@@H](CN(C)S(=O)(=O)c2cn(C)cn2)[C@H](C)CN([C@H](C)CO)C(=O)c2cc(NC(=O)c3ccccc3)ccc2O1,-1.8,i
C[C@H](CO)N1C[C@H](C)[C@H](CN(C)C(=O)CC2CC2)Oc2ncc(-c3ccc(C#N)cc3)cc2C1=O,-0.9,i
